VDR inhibitor = inhibitors of human vitamin D receptor. P11473. VDR-SRC2-3 peptide fluorescence polarization, 2 h. Potency, µM, inactives show max response, negative = inhibition, hits mostly inhibitors. 400,000 compounds, 0.93% hits; active = well fitted inhibition curve with a large enough effect; inconclusive = small, poorly fitted or top-dose-only effect, or another doubt; inactive = no such curve, though single readings can be large or run the other way; note: series mostly up to about 120 µM
Target sequence (P11473 whole entry, looked up): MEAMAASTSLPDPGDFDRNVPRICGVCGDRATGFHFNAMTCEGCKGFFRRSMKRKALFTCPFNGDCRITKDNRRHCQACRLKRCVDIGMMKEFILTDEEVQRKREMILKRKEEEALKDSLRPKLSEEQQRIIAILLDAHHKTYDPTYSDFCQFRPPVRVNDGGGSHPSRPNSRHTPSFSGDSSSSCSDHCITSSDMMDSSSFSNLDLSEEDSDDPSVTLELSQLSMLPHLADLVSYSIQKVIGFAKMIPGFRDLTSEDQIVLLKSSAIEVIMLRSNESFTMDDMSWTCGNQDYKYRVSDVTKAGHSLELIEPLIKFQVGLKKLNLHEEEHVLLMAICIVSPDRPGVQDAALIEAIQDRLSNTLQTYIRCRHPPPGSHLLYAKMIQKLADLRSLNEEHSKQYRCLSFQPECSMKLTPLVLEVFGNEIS
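After 23 nl compound addition and a short centrifugation, plates sat for 2 hours at ambient temperature; polarization of fluorescence then indicated loss of VDR binding to peptide SRC2-3.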
Active calls of the source: *; ? = inconclusive; & = joins results of further samples; [ ] = another dose, or the depositor's remark. % is set by controls: 0 for no effect and ±100 for the full control effect; potency is the fitted concentration of half-maximal effect.

VDR inhibitor,SMILES
-4.2%,Cc1ccc(C)c(N2CCN(C3(c4ccccc4)C(=O)c4ccccc4C3=O)CC2)c1
?,Cn1nnnc1SCC(=O)c1ccc(Br)s1
-9.3%,C=CCOc1ccccc1C1C2=C(CC(C)(C)CC2=O)Nc2c1c(=O)n(C)c(=O)n2C (stereo not drawn)
-0.7%,CCCCN(C(=O)c1cc(S(=O)(=O)N2CCCCC2)ccc1Cl)c1c(N)n(CCC)c(=O)[nH]c1=O
-3.2%,CCOC(=O)c1c(NC(=O)CSc2cn(CCNC(=O)c3ccccc3OC)c3ccccc23)sc2c1CCC2
-2.3%,Cc1ccc(NC(=O)c2sc3nc(-c4ccncc4)ccc3c2N)cc1
71.3%[activator],CCC(CO)NCc1ccc2c(c1)n(C)c(=O)n2C (stereo not drawn)
1.5%,CC1CCN(S(=O)(=O)N2CCC(C(=O)NCc3cccs3)CC2)CC1
-11.3%,C/C=C/C(=O)Nc1nnc(-c2ccccc2C)s1
14.2%,COc1ccc(-c2cc(C(F)(F)F)n3nc(C(=O)N4CCOCC4)nc3n2)cc1
15.1%,O=C(O)C(=O)Nc1nc(-c2ccc3c(c2)OCCO3)cs1
18.3%,COc1ccc(NC(=S)NCc2cccnc2)cc1
0.0%,CCCNC(=O)CN1C(=O)c2ccccc2Sc2ncccc21
-9.5%,COc1c(C)cc(C(=O)C2CCCN(C(=O)C3=C(C)OCCO3)C2)cc1C (stereo not drawn)
-4.5%,CC(C)(C)NC(=O)/C(=C\c1ccc(Br)cc1)NC(=O)c1cccs1
-7.4%,Cc1ccc2c(CC(=O)NCC(=O)Nc3c(C)cccc3C)coc2c1
2.8%,Cc1cccc(NCCC#N)c1
20.4%,N#CCC(CNc1ncc(C(F)(F)F)cc1Cl)OC(=O)c1cccc([N+](=O)[O-])c1 (stereo not drawn)
-9.2%,COCCCNC(=O)Cn1nnc(-c2ccccc2NC(=O)c2ccccc2F)n1
1.5%,S=c1[nH]nc(-c2ccco2)n1-c1cccc2ccccc12
-2.7%,CCOc1cc(C2c3c(oc4ccc(F)cc4c3=O)C(=O)N2Cc2ccc(C)cc2)ccc1O (stereo not drawn)
-12.1%,Cc1ccc(-c2nnc(SCc3ccccc3C)o2)cc1
25.0%,COc1cc(CCC(=O)NCc2ccc3c(c2)CCN3C(=O)c2ccc(F)cc2)cc(OC)c1OC
-8.4%,CC(=O)N1c2ccc(S(=O)(=O)N(C)CC(=O)NCc3ccccc3)cc2CC1C (stereo not drawn)
?,O=c1ccsn1Cc1ccccc1
-8.5%,O=C(CSc1nc2ccccc2[nH]1)Nc1ccc2c(c1)OCCO2
10.9%&-9.1%,Cc1ccc(S(=O)(=O)NCC(c2ccco2)N2CCOCC2)cc1 (stereo not drawn)
3.0%,Cc1ccc(CCNC(=O)c2cc(-c3ccncc3)nc3ccc(S(=O)(=O)N4CCOCC4)cc23)cc1
6.5%,Cc1ccc(S(=O)(=O)CCc2nc3ccccc3[nH]2)cc1C
-1.2%,CCOC(=O)c1c(C)[nH]c(C)c1S(=O)(=O)N(C)CC(=O)Nc1ccc(C)c(N(C)C)c1
?,COc1ccccc1/C=C/C(=O)OCC(=O)NC(=O)NC1CCCC1
8.7%,C[C@]12CCC3c4ccc(O)cc4CCC3C1CC/C2=N\N (stereo partly drawn)
2.2%,Cc1csc(SCC(=O)Nc2cc(S(=O)(=O)N(C)C)ccc2C)n1
1.8%,O=C(CCS(=O)(=O)c1ccccc1)NNC(=O)COc1ccc(F)cc1
-16.4%,Cc1ccc(/C=N/NC(=O)Cn2cncn2)cc1
-15.5%,N#CCC(=O)N/N=C/c1ccc(OC2CSC2)cc1
8.9%,CCN(Cc1ccccc1)C(=O)COC(=O)Cn1cnc2ccccc21
8.8%,COc1cccc(N/C(N)=N/c2nc(C(F)(F)F)cc(=O)[nH]2)c1
-3.6%,COc1ccc(CN2C(=O)CN(C3CCCCCC3)C(=O)C2c2ccc(F)cc2)cc1 (stereo not drawn)
-12.5%,Cc1ccc(N2CCN(C(=O)C3CCN(S(=O)(=O)c4cccc5nsnc45)CC3)CC2C)cc1 (stereo not drawn)
-11.2%&3.7%,COC(=O)C1=C(C)N(Cc2ccccc2)C(=O)N[C@H]1c1ccccc1
2.7%,CCOC(=O)c1ccc(NC(=O)CSc2nnc(C3CC3)n2C)cc1
-1.1%,Cc1ccc(Cn2c(SCc3ccc(C(=O)NCCc4ccccc4)cc3)nc3ccncc32)cc1
0.1%,Cc1cc(O)c(C)c(O)c1C(=O)O
5.0%,Cc1cc([N+](=O)[O-])c(NC2CCCCC2)c([N+](=O)[O-])c1
-18.8%,Cc1ccc(Nc2cc(C(=O)NCc3cccs3)c3ccccc3n2)c(C)c1
7.7%,COc1cc(Cl)ccc1OCc1cc(C(=O)N(C)CCc2cnn(C)c2)no1
-24.3%,CCOc1ccc(C(C)=O)cc1N1C(=O)C2C3C=CC(C3=C(C)C)C2C1=O (stereo not drawn)
-2.8%,O=S(=O)(c1ccc(F)cc1)N1CCN(S(=O)(=O)c2cccs2)CC1
-11.1%,O=C(O)CSCC(=O)N1CCc2c([nH]c3ccccc23)C1C(F)(F)F (stereo not drawn)

Some of these compounds in order of the VDR inhibitor value, ascending.
structure | VDR inhibitor
CCOc1ccc(C(C)=O)cc1N1C(=O)C2C3C=CC(C3=C(C)C)C2C1=O (stereo not drawn) | -24.3%
O=C(CSc1nc2ccccc2[nH]1)Nc1ccc2c(c1)OCCO2 | -8.5%
Cc1ccc(Cn2c(SCc3ccc(C(=O)NCCc4ccccc4)cc3)nc3ccncc32)cc1 | -1.1%

(cont.)
VDR inhibitor,SMILES
-10.0%,CCN(C(=O)COC(=O)c1cc(C)n(-c2ccc(F)cc2)c1C)C1CCS(=O)(=O)C1 (stereo not drawn)
-12.2%,CCOc1ccc(-c2nnc(SCC(=O)O)n2Cc2ccccc2)cc1
-9.7%,CCCNC(=O)CCn1cc(-c2ccc(OC)cc2)nc1-c1ccncc1
0.7%,Cc1cccc(C)c1NC(=O)CNc1ccccc1
9.4%,CCN(CC(=O)Nc1ccc(OC)cc1)C(=O)Cc1ccsc1
-9.9%,O=C(NNC(=O)C12CC3CC(CC(C3)C1)C2)c1csc(N2CCOCC2)n1
-25.7%,Cc1ccc(S(=O)(=O)N2[C@@H](c3ccc(Br)cc3)C(C(=O)O)=CC[C@H]2c2ccc(Cl)cc2)cc1
-12.2%,Cc1ccc(C(N)=O)cc1S(=O)(=O)Nc1cccc(C)c1C
5.6%,COc1ccc(-n2c(CN3CCN(Cc4ccccc4)CC3)nc3ccc([N+](=O)[O-])cc3c2=O)c(OC)c1
-9.8%,Cc1c(Cl)cccc1NC(=O)CNC(=O)c1ccc(F)cc1
-7.0%,CC(C)Nc1nc(SC(C)C(=O)Nc2ccccc2)nc(N(C)C)n1 (stereo not drawn)
7.4%,COc1ccc(N2CCN(S(=O)(=O)CCNC(=O)/C=C/c3ccccc3)CC2)cc1
-1.4%,O=C(Cc1cccc2ccccc12)Nc1cc(C(=O)O)cc(C(=O)O)c1
1.0%,COc1ccc(OC)c(CNC(=O)C2COc3ccccc3C2)c1 (stereo not drawn)
3.0%,C[C@@H]1CN([C@@H](C)CO)C(=O)c2cc(NS(C)(=O)=O)ccc2O[C@@H]1CN(C)S(=O)(=O)c1ccccc1
5.3%,O=C(CC(c1ccccc1)c1cc(Cl)ccc1O)NCCCN1CCOCC1 (stereo not drawn)
1.5%,C=C(C)[C@H]1CC=C(C)/C(=N/NC(=O)CNc2ccccc2OC)C1
-0.7%,CCn1ccc2cc(S(=O)(=O)N3CCCN(C(=O)Nc4ccccc4F)CC3)ccc21
-6.1%,O=C1OCCC1Sc1nc(-c2ccccc2)cs1 (stereo not drawn)
13.9%,O=S(=O)(c1ccc(OCC(O)CN2CCCCC2)cc1)N1CCOCC1 (stereo not drawn)
-24.6%,N#Cc1c(Nc2ccccc2)sc(C(=O)c2ccc(F)cc2)c1N
-5.6%,Cc1cc(C)c(S(=O)(=O)N2CCN(C(=O)c3cc(=O)[nH]c4ccccc34)CC2)c(C)c1
1.3%,O=C(c1ccco1)N1CCN(c2ncnc3scc(-c4ccccc4)c23)CC1
8.6%,CCC(C(=O)NCCC(C)C)N(Cc1ccccc1Cl)C(=O)c1snc(C(N)=O)c1N (stereo not drawn)
12.1%,C/C(=N/NC(=O)c1ccc(C)s1)c1cccc(NC(=O)c2ccoc2C)c1
-8.0%,O=C(CSCc1ccc(F)cc1)NCc1ccco1
-9.5%,O=C(Nc1ccc(S(=O)(=O)Nc2ccccc2)cc1)c1ccc(CN2CCOCC2)cc1
8.2%,COc1ccc(Cc2nc3ccc(C(=O)N(C)CCn4ccnc4)cc3o2)cc1OC
7.7%,O=C(Cc1ccc(Cl)c(Cl)c1)Nc1ccc(SC(F)F)cc1
-7.2%&-29.7%,OCCN1CCN(C(=S)Nc2cccc(C(F)(F)F)c2)CC1
-7.3%,O=C(Cn1cccc1C(=O)c1ccccc1)NCCC1=CCCCC1
-5.9%,CCOc1ccc(S(=O)(=O)N2CCOCC2)cc1NC(=O)CSCC(=O)Nc1ccc(C)cc1
1.8%,C#Cc1ccc(C(=O)Nc2ccc(N3CCC(C)CC3)c(C(N)=O)c2)cc1
-7.6%,O=C(Nc1cccc2ccccc12)c1cccc([N+](=O)[O-])c1
?,CCn1c(SCC(=O)Nc2cc3oc4ccccc4c3cc2OC)nnc1-c1cccs1
1.9%,COc1ccc(-c2cc(C(F)(F)F)nc(SCC(=O)N3CCCCC3)n2)cc1
2.2%,CCc1ccc(OCCCn2c(CCNC(=O)C3CCCCC3)nc3ccccc32)cc1
-1.3%,COc1cccc(N2CCN(C(=O)c3cnn(C(C)(C)C)c3C3CCN(C(=O)OC(C)(C)C)CC3)CC2)c1
12.4%,CC1CC(C)CN(CCC(=O)Nc2cccc(Cl)c2)C1 (stereo not drawn)
-3.6%,CN(C)S(=O)(=O)c1cc(NC(=O)COC(=O)Cc2cccc3ccccc23)ccc1Cl
-2.5%,CCCCOC(=O)/C=C/c1ccc(OC(=O)OC)c(OC(=O)OC)c1
-1.6%,Cc1ccc(-c2c3c(=O)n(C)c(=O)n(C)c3cn2N2CCOCC2)cc1
4.3%,CC1(C)C(=O)Nc2ccccc2N1C(=O)COC(=O)CSc1ccc(Cl)cc1
-3.5%,O=C(Nc1nncs1)C1CC(=O)N(CCc2ccc(F)cc2)C1 (stereo not drawn)
?,CC1CCCC(NC(=O)C2c3ccccc3C(=O)N2Cc2cccs2)C1C (stereo not drawn)
3.7%,Cc1ccc(OCCCC(=O)Nc2ccc(S(=O)(=O)Nc3cc(C)nc(C)n3)cc2)cc1
-8.7%,Cc1ccc(OCC(=O)Nc2ccc(S(=O)(=O)Nc3onc(C)c3C)cc2)cc1
-6.5%,Cc1cc(C)n(C(=O)/C(C#N)=N/Nc2cc(Cl)cc(Cl)c2)n1
-1.4%,Clc1ccc2c(c1)nc1n2CCCC1
8.3%,COc1ccc(-c2ccc3nnc(SCC(=O)Nc4ccc(NC(C)=O)cc4)n3n2)cc1

Three compounds picked at random from those above:
VDR inhibitor,SMILES
8.2%,COc1ccc(Cc2nc3ccc(C(=O)N(C)CCn4ccnc4)cc3o2)cc1OC
-5.9%,CCOc1ccc(S(=O)(=O)N2CCOCC2)cc1NC(=O)CSCC(=O)Nc1ccc(C)cc1
-8.7%,Cc1ccc(OCC(=O)Nc2ccc(S(=O)(=O)Nc3onc(C)c3C)cc2)cc1

An excerpt of these results, as tab-separated lines.
SMILES	VDR inhibitor
O=C(Nc1nncs1)C1CC(=O)N(CCc2ccc(F)cc2)C1 (stereo not drawn)	-3.5%
CC1CCCC(NC(=O)C2c3ccccc3C(=O)N2Cc2cccs2)C1C (stereo not drawn)	?
Cc1ccc(OCCCC(=O)Nc2ccc(S(=O)(=O)Nc3cc(C)nc(C)n3)cc2)cc1	3.7%

(more compounds)
VDR inhibitor,SMILES
-10.1%,CCC1(c2ccc(F)cc2)NC(=O)N(CC(=O)Nc2ccccc2C)C1=O (stereo not drawn)
-8.1%,CC(Oc1cccc(Cl)c1)C(=O)Nc1cc(Cl)ccc1N1CCOCC1 (stereo not drawn)
-4.1%,NC(=O)NC(CC(=O)NCCc1ccc(S(N)(=O)=O)cc1)c1ccccc1Cl (stereo not drawn)
7.5%,CCOC(=O)C(C)Oc1cccc2c(=O)n(CC(=O)NCCc3ccccc3)ccc12 (stereo not drawn)
-11.8%,COc1ccc(OC)c(S(=O)(=O)Nc2cc3c4c(c2)CCC(=O)N4CCC3)c1
-1.3%,O=C1c2cccc3c([N+](=O)[O-])ccc(c23)C(=O)N1O
11.4%,Cc1ccc(S(=O)(=O)C(CNC(=O)Cc2ccc(Cl)cc2)c2cccs2)cc1 (stereo not drawn)
1.4%,Cc1ccc(CCNC(=O)CNC(=S)N(Cc2ccccc2)Cc2cccnc2)cc1
-24.5%&2.6%,O=c1cc(-c2ccc(O)c(O)c2)oc2cc(O)cc(O)c12
0.4%,O=C(NCCCN1CCCC1)C1CCC(=O)N1C1CCCCC1 (stereo not drawn)
7.9%,O=C(CN1C(=O)CCSc2ccccc21)NC1CCCCC1
3.4%,O=C(N/N=C/C1=Cc2ccccc2OC1)c1ccncc1
1.5%,COc1ccc(-c2csc(Nc3ccc(S(=O)(=O)Nc4cc(C)on4)cc3)n2)cc1C
8.6%,O=C(CSc1nnc(CNC(=O)c2cccs2)o1)Nc1ccccc1
1.3%,Cc1ccc(NC(=O)c2cc3c(=O)n(Cc4ccco4)ccc3nc2C)cc1C
16.1%,CCCS(=O)(=O)N1CCCC(C(=O)NCCCN(C)c2ccccc2)C1 (stereo not drawn)
3.1%,C[N+]1(CC(=O)OCCCc2ccccc2)CCCCC1
23.1%,Cc1nc(C)n(C(C)CNS(=O)(=O)c2ccc(C)c(C)c2)n1 (stereo not drawn)
-9.6%,COc1ccccc1N(Cc1cc(=O)[nH]c2ccccc12)C(=O)C(C)C
-12.1%,Cc1cccc(N(Cc2ccccc2)C(=O)c2ccc(F)c(S(=O)(=O)N3CCOCC3)c2)c1
-14.6%,CC(=O)c1ccc(OCCCC(=O)Nc2ccc3c(c2)OCCO3)cc1
1.0%,c1ccc(-[n+]2nc(Nc3cccc4ccccc34)sc2-c2c3ccccc3cc3ccccc23)cc1

The list is partial; rates above refer to the full screens.
